NPYLR7 agonist: activates Aedes aegypti NPYLR7 receptor | actives 0.15% (n = 270,000) | HEK293T NPYLR7/Galpha15, GCaMP6s calcium fluorescence | activation, % at 10 µM | AID 1259423; in the data active = activation above about 40%;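 also: 0% = vehicle and 100% = reference agonist at the receptor; some compounds past the cut are filed as inactive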
NPYLR7 agonist max-min: second read-out of NPYLR7 agonist, no call of its own (marks repeat the call); activation, %; measured here: Max-Min RFU normalised activation; some inactives read as strong as hits;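 span of the calcium signal over five minutes; 0% = vehicle and 100% = native peptide agonist; compound fluorescence can raise it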
* marks the source's active call; other numbers are inactive results; & = joins results of further samples. A portion of the library, so the mix of outcomes need not match the whole.

SMILES	NPYLR7 agonist	NPYLR7 agonist max-min
CC(=O)Nc1ccc(CC(=O)O)cc1	-9.4	-16.5
CN(C)CCCC1(c2ccc(F)cc2)OCc2cc(C#N)ccc21 (centres undefined)	-2.3&-2.4&2.1&8.5	-6.5&-5.8&-2.2&-7.2
Cc1cc(C)cc(-c2nc3ccccn3c2N)c1	1.8	0.8
Cc1ccc(N(CC2=NCCN2)c2cccc(O)c2)cc1	-5.6&-9.2&-0.3&1.4	-6.6&-13.3&-3.9&-6.4
Cc1cc2c(F)c(Oc3ncnn4cc(OC[C@@H](C)OC(=O)[C@H](C)N)c(C)c34)ccc2[nH]1	0.5	-1.7
CNCCCN1c2ccccc2CCc2ccccc21	20.6&-6.4&-3.1&-5.3&-0.9	10.3&-10.3&-3.7&-10.1&-29.2
Cc1c(CN2CCN(C(=O)[C@H](C)O)CC2)sc2c(N3CCOCC3)nc(-c3cnc(N)nc3)nc12	9.5	-1.8
C[N+]1(C)CCC(=C(c2ccccc2)c2ccccc2)CC1	-1.8	-2.2
C1COC(NC(C2CC2)C2CC2)=N1	-16.3&3.3	-24.1&-5.8
CCNC(=O)Nc1ccc(-c2nc3c(c(N4CCOC[C@@H]4C)n2)CCN(C2COC2)C3)cc1	7.1	-3.4

In the list so far, these have nitrogen in an aromatic ring.
SMILES	NPYLR7 agonist	NPYLR7 agonist max-min
Cc1cc(C)cc(-c2nc3ccccn3c2N)c1	1.8	0.8
Cc1cc2c(F)c(Oc3ncnn4cc(OC[C@@H](C)OC(=O)[C@H](C)N)c(C)c34)ccc2[nH]1	0.5	-1.7
Cc1c(CN2CCN(C(=O)[C@H](C)O)CC2)sc2c(N3CCOCC3)nc(-c3cnc(N)nc3)nc12	9.5	-1.8
CCNC(=O)Nc1ccc(-c2nc3c(c(N4CCOC[C@@H]4C)n2)CCN(C2COC2)C3)cc1	7.1	-3.4

Next compounds follow.
SMILES	NPYLR7 agonist	NPYLR7 agonist max-min
CC(C(=O)O)c1ccc2c(c1)CC(=O)c1ccccc1S2 (centres undefined)	2.4	-4.4
Oc1ccc(C2CNCCc3c2cc(O)c(O)c3Cl)cc1 (centres undefined)	-9.3&-7.7&-5.9	-2.7&-12.3&-2.2
CS(=O)(=O)c1ccc(-c2cnc(N)c(C(=O)Nc3ccccc3)n2)cc1	-2.3	-8.8
COc1ccc(-c2ccc3c(N4CCOC[C@@H]4C)nc(N4CCOC[C@@H]4C)nc3n2)cc1CO	-5.6	-11.6
CNC(=O)c1nn(C)c2c1C(C)(C)Cc1cnc(Nc3ccc(N4CCN(C)CC4)cc3)nc1-2	-6.9	-10.3
Cc1cccc(-c2nn3c(c2-c2ccnc4ccc(C(N)=O)cc24)CCC3)n1	-2.2	-7.6
Cc1cc2c(F)c(Oc3ncnn4cc(OC[C@@H](C)O)c(C)c34)ccc2[nH]1	-3.2	-10.9

Among those listed so far, these have sulfur.
SMILES	NPYLR7 agonist	NPYLR7 agonist max-min
Cc1c(CN2CCN(C(=O)[C@H](C)O)CC2)sc2c(N3CCOCC3)nc(-c3cnc(N)nc3)nc12	9.5	-1.8
CC(C(=O)O)c1ccc2c(c1)CC(=O)c1ccccc1S2 (centres undefined)	2.4	-4.4
CS(=O)(=O)c1ccc(-c2cnc(N)c(C(=O)Nc3ccccc3)n2)cc1	-2.3	-8.8

Screening results from PubChem BioAssay.
